SmPrx2 inh: blocks S. mansoni peroxiredoxin 2 enzymatic activity | S. mansoni Prx2 activity coupled to TGR/GSH (TGR is thioredoxin glutathione reductase), NADPH fluorescence loss, qHTS; some inactives read as strong as hits | hit rate 0.07% among 65,000 | AID 448 | Potency, µM; active means full or partial inhibition curve with a strong effect at the top dose; inconclusive means weaker partial or single-point curve; inactive means no accepted curve; also: series up to 57 µM; many of its hits are not listed in these tables
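qHTS, coupled TGR/Prx2 format; 15 min compound preincubation at RT; reaction started with H2O2 (2.5 mM aliquot); kinetic NADPH fluorescence decrease, ex 365/em 450 nm.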
Anthrax LT inh: blocks cellular internalization of anthrax lethal toxin; Potency, µM (titrated, usually from 40 µM), for inactives: at the highest dose activity change, negative = inhibition, hits mostly inhibitors; Cells, anthrax lethal toxin internalization, FRET ratio (460/530); AID 912; hit rate 0.67% among 70,000; active = well fitted falling ratio curve with the 530 nm signal flat; inconclusive = other ratio curves, or a change in one channel alone; inactive = flat curves in the ratio and both channels; the % refers to the ratio; also: % is scaled to controls: 0 for no effect and ±100 for the full control effect; nearly all actives have a fitted effect of over 50% in size; tested in ME-180 cells; beta-lactamase reporter
An asterisk follows results filed as active; ? = inconclusive; nt = no result given; & = joins results of further samples; [ ] = another dose, or the depositor's remark. Potency is read from the fitted curve at half-maximal effect.

Fields – Anthrax LT inh | SmPrx2 inh
COc1cc(-c2nnc(COC(=O)CSc3cc(C)c4ccccc4n3)o2)cc(OC)c1OC
    -2% | >57
O=C(CCn1c(=S)[nH]c2ccccc2c1=O)NCC1CCCO1 (centres undefined)
    10% | >57
COc1ccc(C(=O)N2CCC3(CCCN(c4ncccn4)C3)CC2)cc1
    ? | >57
COCCn1c(-c2ccco2)nc2nc3ccccc3nc21
    23% | nt
CCCn1nc(NS(=O)(=O)c2ccccc2)c2cc3ccccc3nc21
    -30% | >57
O=C(CN1C(=O)COc2ccccc21)N1CCc2ccccc21
    8% | >57
CC(=O)Nc1nc(=S)ss1
    3% | >57
O=C(c1n[nH]c2c1CCCC2)n1ccnc1
    -25% | >57
COc1ccc(CCNCc2csc3nc4ccccc4n23)cc1OC
    ? | >57
O=C(NCc1ccc2c(c1)OCO2)c1ccc(C2SCC(=O)N2Cc2ccco2)cc1 (centres undefined)
    -16% | >57
CCCCN(CCO)CCCC
    -2% | nt
O=C(Nc1ccc(Cl)cc1)N1CC=CCC1
    -2% | nt
Cc1cccc(Nc2ccccc2C(=O)O)c1C
    10%[3.58 µM] | >57
CC(C)(C)NC(=O)Cn1c(=O)oc2ccc(Cl)cc21
    -7% | >57
CCCCOc1ccc(-c2ncc(C(=O)O)c(C)n2)cc1
    -3% | >57
Cc1ccc(C2CC(c3ccc(Cl)cc3)n3nc(N)nc3N2)cc1 (centres undefined)
    2% | >57
CCOc1cccc2cc(C(=O)NCc3cccnc3)c(=O)oc12
    0% | >57
Cn1c(SCC(=O)OCC(=O)c2ccccc2)nnc1-c1cccs1
    20% | >57
CCOC(=O)C(O)(CCC(O)(C(=O)OCC)C(=O)OCC)C(=O)OCC
    -4% | nt
CCN1CCN(c2ccc(-n3c(C)nc4c(cnn4-c4ccccc4Cl)c3=O)cc2)CC1
    -6% | >57
N#Cc1nc(-c2cccc3ccccc23)oc1N1CCCCC1
    ? | >57
Cc1ccc(NC(=O)CSc2nnc(Cn3c(=O)sc4ccccc43)n2C)cc1Cl
    5% | >57
N#Cc1ccsc1NC(=O)c1ccccn1
    3% | >57
N#Cc1ccc(CSc2nnc(-c3cccnc3)n2-c2ccccc2)cc1
    ? | >57
Cc1cc(C)nc(NC(=NCCc2c[nH]c3ccccc23)NC(=O)c2ccco2)n1
    ? | >57
COc1ccc2c(c1)C(C)=CC(C)(C)N2C(=O)CSc1nnc(-c2ccc(C)cc2)o1
    ? | >57
CC(=O)N1CCC2(CCCN(c3ncccn3)C2)CC1
    2% | >57
CCOC(=O)CSC1=Nc2ccccc2C2=NC(CC(=O)NCc3cccs3)C(=O)N12 (centres undefined)
    7% | >57
O=C1OC(Nc2nccs2)c2ccccc21 (centres undefined)
    3% | >57
CCOC(=O)CCCNC(=O)c1cncc(Br)c1
    -2% | nt

Complete entries, quoted from the list. Order of screens: Anthrax LT inh	SmPrx2 inh
CCOc1cccc2cc(C(=O)NCc3cccnc3)c(=O)oc12 is listed as 0%	>57
CC(C)(C)NC(=O)Cn1c(=O)oc2ccc(Cl)cc21 is listed as -7%	>57

Carrying on:
Fields – Anthrax LT inh | SmPrx2 inh
CCN(CC)C(=O)CN(Cc1ccccc1)S(=O)(=O)c1ccc(F)cc1
    -13% | nt
COc1ccc(C(=O)[C@H]2[C@H]3[C@@H](C(=O)[C@@H]4OC[C@H]3O4)[C@H]3C=Cc4ccccc4N32)c(OC)c1
    ? | >57
Cc1ccc(-n2c(SCC(=O)Nc3ccc4cn[nH]c4c3)nnc2-c2ccco2)cc1
    ? | >57
CC1Cc2ccccc2N1C(=O)Cc1cccs1 (centres undefined)
    -2% | >57
COc1ccc2cc(C#N)c(SCC(=O)N3CCCC3)nc2c1
    -1% | >57
Cc1cccc(N2CCN(C(c3ccccc3)c3nnnn3CC3CCCO3)CC2)c1C (centres undefined)
    -22% | >57
O=C(O)COc1ccc(C(=O)Cc2ccc3c(c2)OCCCO3)c(O)c1
    -7% | >57
COc1ccc2cccc(N3CCN(CCNC(=O)c4ccc(F)cc4)CC3)c2c1
    ? | >57
CCOc1cc(N2CCOCC2)c(OCC)cc1NC(=O)CN1C(=O)NC(Cc2ccccc2)C1=O (centres undefined)
    nt | >57
COc1ccc(N(CC(=O)Nc2cccc(C(C)=O)c2)S(C)(=O)=O)cc1OC
    4% | nt
c1cncc(-c2cccnc2)c1
    22% | >57
Cc1c(C)c2c(c(C)c1O)CC[C@@](C)(CN1CCN(c3cc(N4CCCC4)nc(N4CCCC4)n3)CC1)O2
    -10% | >26
O=C(COc1ccc(Cl)cc1Cl)Nc1ccc(Cl)cn1
    ? | nt
O=C(NC1=NCCS1)c1ccc(-c2ccc(Cl)cc2)o1
    ? | >57
Cc1nn(C)c(C)c1NC(=O)c1ccc(S(=O)(=O)N(C)C)cc1
    -9% | >57
O=C1COc2ccc(C(=O)CSc3nnnn3-c3ccccc3)cc2N1
    2% | >57
C#CCCCO/N=C1/C[C@@H](O)[C@@H](O)[C@@H]2[C@@H]3C(=O)N(CCC(=O)OCC)C(=O)[C@H]3CC[C@@H]12
    -1%[8 µM] | nt
COc1ccccc1-c1nc(NCCNC(C)=O)c2ccccc2n1
    -1% | >57
COC(=O)c1c[nH]n2c(=O)c(Cc3ccc(F)cc3Cl)c(C)nc12
    nt | >57
COC(=O)Cn1cc(C(=O)c2cccs2)c2ccccc21
    0% | >57
Cn1c(=O)[nH]c(=O)c2c1nc(SCCN1CCCCC1)n2Cc1ccccc1
    8% | >57
CC1=C(C#N)C(C)C2=C(CC(C)(C)CC2=O)N1 (centres undefined)
    ? | nt
COc1cccc(OC)c1C(=O)N1CCN(Cc2ccccc2C(F)(F)F)CC1
    -6% | >57
CC(C)[C@H](NC(=O)NC1CCCC1)C(=O)O
    -4% | >57
CCOc1cc(C(=O)N2CCN(c3ccc(C(C)=O)cc3)CC2)cc(OCC)c1OCC
    23% | >57
COc1cccc(/C=N/n2cncn2)c1OCC#N
    10% | >57
COCCOc1ccc(C(F)(F)F)cc1Nc1nc2ccccc2o1
    -25% | >57
CCOc1ccc(N(CC(=O)NC2CCCCCC2)S(=O)(=O)c2c(C)noc2C)cc1
    5% | >57
O=C(COC(=O)CCOc1ccccc1)Nc1ccc(Cl)cn1
    4% | >57
CN=C1SC(CC(=O)Nc2cc(Cl)ccc2Cl)C(=O)N1C (centres undefined)
    -17% | >57

Looked up above.
Anthrax LT inh, Cn1c(=O)[nH]c(=O)c2c1nc(SCCN1CCCCC1)n2Cc1ccccc1 stands at 8%
Anthrax LT inh, COc1cccc(OC)c1C(=O)N1CCN(Cc2ccccc2C(F)(F)F)CC1 stands at -6%
SmPrx2 inh, CCOc1cc(N2CCOCC2)c(OCC)cc1NC(=O)CN1C(=O)NC(Cc2ccccc2)C1=O (centres undefined) stands at >57

Next section.
Fields – Anthrax LT inh | SmPrx2 inh
COc1cc2c(=O)n(Cc3ccco3)c(=O)n(CC(=O)c3ccc(Br)cc3)c2cc1OC
    0% | >57
COC(=O)c1c(NC(=O)C2CC2)sc2c1CCCC2
    -4% | >57
CCCCn1c(O)c(C(CC)=Nc2ccc(OCC)cc2)c(=O)[nH]c1=O
    ? | >57
CC(C)[C@@H]1[C@H]2CC[C@H](C2)[C@H]1N
    ? | >57&>57
COc1ccc(CC(NC(C)=O)C(=O)NC2CCN(S(=O)(=O)c3ccccc3)CC2)cc1OC (centres undefined)
    2% | >57
O=C(c1ccccc1NS(=O)(=O)c1ccc(Br)s1)N1CCCC1
    20% | >57
Cc1cc(NC(=O)COC(=O)c2cc3c(s2)CCC(C)C3)no1 (centres undefined)
    3% | >57
Cc1ccc2c(c1)N(CC(=O)N1CCCCC1c1cccnc1)C(=O)CO2 (centres undefined)
    -9% | >57
CCC/C=C(\CCC)C(NC(=O)c1ccc(C(F)(F)F)cc1)c1ccc(C(F)(F)F)cc1 (centres undefined)
    -16% | >57
CSc1ccccc1NS(=O)(=O)c1ccc2c(c1)OCCO2
    0% | >57
Cc1ccc2nc(N/N=C\c3cccc(C)n3)cc(C)c2c1
    -20%[8 µM] | >57
O=C(NCCCO)c1ccc2[nH]c3ccccc3c2c1
    -4% | >57
N#Cc1cccc(-c2ccc3ncnc(NCc4ccccc4)c3c2)c1
    ? | >11
CCOC(=O)c1c(C)[nH]c2ccc3c(c12)CN1CCc2cc(OC)ccc2[C@@H]1O3
    2.5µM* | >57
O=C(Nc1nnc(CCN2CCOCC2)s1)C1CCCCC1
    ? | >57
CCC(=O)n1nc(NCc2ccccc2OC)nc1NCc1ccccc1OC
    -22% | >57
NC1CCC(CC2CCC(N)CC2)CC1 (centres undefined)
    -16% | nt
CCOc1ccccc1NC1=NCC(=O)N1Cc1ccc(F)cc1
    ? | >57
Cc1nn(C(C)C(=O)O)c(=O)c2c1sc1ccccc12 (centres undefined)
    -10% | >57
O=C1c2ccccc2CC[C@H]1CNCCc1ccc(O)cc1
    ? | >57
COc1ccc(NC(=O)c2ccco2)cc1NC(=O)c1c(F)c(F)c(OC)c(F)c1F
    17% | >57
CN1C(=O)N(CN2CCCCC2)C2C1N(C)C(=O)N2CN1CCCCC1 (centres undefined)
    -2% | >57
Oc1cc2ccccc2cc1-c1n[nH]c(=S)o1
    -3% | >57
COc1ccccc1-c1cc(C(F)(F)F)nc(S(=O)(=O)CCCC(=O)N2CCCCC2C)n1 (centres undefined)
    ? | >57
CCN(CC)CCN1c2ccccc2Sc2ccc3ccccc3c21
    -6%[8 µM] | >57
Cc1ccc(OCCSc2nnc(NC(=O)c3ccco3)s2)cc1
    -4% | >57
COC(=O)c1c(-c2ccc(F)cc2)csc1NC(=O)c1ccco1
    ? | nt
CCn1c(Cn2nnc(-c3ccccc3)n2)nnc1SCc1ccc(Cl)c(Cl)c1
    -14% | >57
CCOC(=O)N1CCN(C(=O)c2cc3c(=O)n(C)c4ccccc4c3n2C)CC1
    1% | >57
COc1ccc(NC(=O)c2c(-c3ccccc3Cl)noc2C)c(OC)c1
    -22% | >57
CCN(Cc1ccccc1)S(=O)(=O)c1nc2nc(C)c(C)c(C)n2n1
    4% | >57
O=C(Cn1cc(C(=O)c2cccs2)c2ccccc21)NCc1ccc2c(c1)OCO2
    ? | >57
COc1cccc(OC)c1C1=NCC(=O)Nc2c1oc1ccc(Br)cc21
    ? | >57
N#Cc1c(F)cccc1N1CCOCC1
    5% | >57
COc1cc2c(=O)n(Cc3ccccc3)c(=O)n(CC(=O)NCC3CCCO3)c2cc1OC (centres undefined)
    4% | >57
CCCCn1nnc(NC(=O)CC23CC4CC(CC(C4)C2)C3)n1
    nt | >57
Clc1ccc(CSc2nnc([C@@H]3CCCN3)o2)cc1
    2% | >57
CCCc1cc(C(=O)Nc2cc(OC)c(Cl)cc2OC)no1
    -26% | >57
O=C(CSc1nc2ccsc2c(=O)n1Cc1ccccc1)NCc1ccco1
    2% | >57
CC1CCN(S(=O)(=O)c2cc(Cl)ccc2Br)CC1
    -21% | >57
COCCn1c(SCC(=O)N2CCCCC2)nc2ccccc2c1=O
    11% | >57
CCOC(=O)C1=C(C)Nc2ncnn2C1c1ccc2c(c1)OCO2 (centres undefined)
    17% | >57
C=CC1=C(C)C2=NC1=CC1=NC(=CC3=NC(=CC4=NC(=C2)C(C)=C4CCC(=O)O)C(CCC(=O)O)=C3C)C(C=C)=C1C.[Zn]
    16µM* | >57
CC(=O)c1cnc(Nc2nc(C)c3cccc(C)c3n2)nc1C
    -8% | >57
CCNc1ncc2nc(-c3cccs3)c(=O)n(C[C@H]3CCCO3)c2n1
    ? | >57
CCCCC(=O)Nc1ccc(C(N)=O)cc1
    13% | >57
O=C(Nc1cccc(C(F)(F)F)c1)C1CCCN(S(=O)(=O)c2cnc[nH]2)C1 (centres undefined)
    10% | >57
Cc1cc(C)n(S(=O)(=O)c2ccc(Cl)c(Cl)c2Cl)n1
    ? | >57
CC1CCCCN1C(=O)Cn1c(=O)oc2ccccc21 (centres undefined)
    17% | >57
Cc1cc2cc(CN(Cc3cccs3)Cc3nnnn3CC3CCCO3)c(=O)[nH]c2cc1C (centres undefined)
    ? | >57
CCOC(=O)N1CCC(NS(=O)(=O)c2ccc3c(c2)C(C)(C)C(=O)N3C)CC1
    5% | >57
CCC(CC)C(=O)Nc1c2cnn(-c3ccccc3)c2nc(=O)n1-c1ccccc1
    12% | >57
CCCCCCCC1=CC2=CC(=O)C(C)(O)C(=O)C2=CN1CCCC (centres undefined)
    -4%[8 µM] | nt
Cc1nc(NCc2ccco2)c(C#N)c2c1COC(C)(C)C2
    -6% | >57
COc1ccccc1CNc1nc2nc3c(c(=O)n2[nH]1)CCC3
    -1% | >57
COCCCNC(=O)c1ccccc1NS(=O)(=O)c1ccc(C)cc1
    -9% | >57
CN(CC(=O)NCc1ccco1)S(=O)(=O)c1ccc2c(c1)n(C)c(=O)c(=O)n2C
    13% | >57
CC[C@@H](C)[C@H](NS(=O)(=O)c1ccc(C)cc1)C(=O)N1CCC(C(=O)NCC(=O)O)CC1
    -3% | >57
COCCn1c(C)cc(C(=O)COC(=O)c2cc3c(s2)CCC3)c1C
    -8% | >57
COCCNC(=O)c1ccc2ccccc2n1
    -18% | >57
Cc1ccc(SCc2nc(-c3ccccc3)no2)cc1
    -25% | >57
CCOC1OC2C(CO)OC(n3cnc4c(N)ncnc43)C2O1 (centres undefined)
    7% | >57

Assay outcomes as filed in PubChem.

Only part of the results is shown; the hit share may differ from the screen's.
